High-throughput results (PubChem)
miR-21 reporter – qHTS Assay for Modulators of miRNAs and/orActivators of miR-21; HeLa miR-21 FLuc reporter, luciferase, 48 h; Potency, µM (top dose mostly 38.3 µM), for the others: at the highest dose reporter change, positive = more light; 340,000 tested, under 10 active; AID 2288, 2010; active = well fitted rising curve with a large enough effect; inconclusive = small, poorly fitted or top-dose-only effect; inactive = no such curve, though single readings can be large or run the other way;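 further: % of control where 0% means no effect; miR-21 action dims this reporter so a rising signal means less miR-21 action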
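Compounds were titrated across several concentrations (up to approximately 40 uM) and incubated 48 hours with HeLa miR-21-FLuc reporter cells (miR-21 target sequence downstream of FLuc, endogenous miR-21). Readout was firefly luciferase luminescence after lytic detection reagent.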
GLA inh pH 4.5 – qHTS Assay for Inhibitors of Human alpha-Galactosidase at pH 4.5 | purified enzyme, 4-MU-alpha-Gal fluorescence, pH 4.5 | activity change, negative = inhibition, % at 105 µM | 230,000 tested, under 10 active; inconclusive = small, poorly fitted or top-dose-only inhibition, or a rising curve; inactive = flat fitted curve, though single readings scatter; no compound was filed as active;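 further: 0% = full activity with enzyme and -100% = basal without enzyme; dose as in the result columns while the protocol names 77 µM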
Rango-impB inh – qHTS Assay for Inhibitors of Rango (Ran-regulated importin-beta cargo) - Importin beta complex formation; 340,000 tested, 0.031% active; Rango CFP/YFP FRET sensor + importin beta, 45 min; Importin subunit beta-1 (Homo sapiens), Q14974; Potency, µM (highest dose often 92.2 µM), inactives show at the highest dose inhibition of complex formation; active = rising FRET ratio curve, often small or poorly fitted; inconclusive = mostly compound fluorescence or quenching in the first reads; inactive = flat curves in all reads;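 further: potency means the concentration at half of the fitted maximal effect; 0% = DMSO wells and 100% = buffer wells lacking importin beta; nearly all actives have a fitted effect of over 15% in size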
Target sequence (Q14974 whole entry, looked up): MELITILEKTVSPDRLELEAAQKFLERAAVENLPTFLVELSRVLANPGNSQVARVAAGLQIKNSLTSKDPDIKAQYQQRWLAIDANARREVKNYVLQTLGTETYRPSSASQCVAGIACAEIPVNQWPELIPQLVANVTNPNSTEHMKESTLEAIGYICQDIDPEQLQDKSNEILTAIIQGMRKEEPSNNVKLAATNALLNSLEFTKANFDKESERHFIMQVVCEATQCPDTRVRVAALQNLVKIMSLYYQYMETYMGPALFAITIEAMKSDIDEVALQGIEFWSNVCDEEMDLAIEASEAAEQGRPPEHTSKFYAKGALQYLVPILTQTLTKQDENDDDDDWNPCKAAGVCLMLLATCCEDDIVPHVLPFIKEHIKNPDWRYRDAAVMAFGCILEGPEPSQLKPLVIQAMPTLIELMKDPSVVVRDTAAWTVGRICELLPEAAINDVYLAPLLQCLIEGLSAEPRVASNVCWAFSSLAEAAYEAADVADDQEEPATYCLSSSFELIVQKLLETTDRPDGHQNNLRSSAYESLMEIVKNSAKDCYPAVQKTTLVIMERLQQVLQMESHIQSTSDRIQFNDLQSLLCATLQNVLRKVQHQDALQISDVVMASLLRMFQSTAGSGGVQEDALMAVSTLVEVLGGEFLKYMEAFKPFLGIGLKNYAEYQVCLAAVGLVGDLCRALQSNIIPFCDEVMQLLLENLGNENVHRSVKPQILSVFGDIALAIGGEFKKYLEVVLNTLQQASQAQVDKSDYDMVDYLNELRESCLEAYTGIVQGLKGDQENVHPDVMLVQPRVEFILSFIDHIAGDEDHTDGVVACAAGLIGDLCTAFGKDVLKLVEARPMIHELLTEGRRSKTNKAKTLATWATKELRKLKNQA
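Inhibition scored from the CFP 486 nm/YFP 530 nm FRET ratio 45 min after adding 0.125 microM importin beta to 50 nM Rango biosensor preincubated 5 min with compound (room temperature, PBS with DTT, Tween-20, BSA). No-importin wells as positive control.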
Rango dissoc inh – qHTS Assay for Inhibitors of RanGTP induced Rango (Ran-regulated importin-beta cargo) - Importin beta complex dissociation; Snurportin-1 (Homo sapiens) + GTP-binding nuclear protein Ran (Homo sapiens) + Importin …; Biochemical FRET Rango-importin beta, RanGTP-induced dissociation; Potency, µM (highest dose often 46.1 µM), inactives show top-dose activity change, negative = inhibition; 340,000 tested, 0.071% active; AID 540253, 2011; active means falling FRET ratio curve, often poorly fitted, with flat reads before Ran was added; inconclusive means other falling curves, or compound fluorescence or quenching; inactive means flat or rising ratio curve;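 further: potency means the concentration at half of the fitted maximal effect; % of control where 0% means no effect; nearly all actives have a fitted effect of over 45% in size; -100% = wells without RanGTP and RCC1; the record marks most hits as doubtful in a second field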
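Quantitative HTS using a FRET biosensor: 0.1 uM Rango, 0.25 uM importin beta, 0.6 uM Ran, 2 mM GTP, 0.2 uM RCC1 final, PBS with DTT, Tween-20 and BSA. Post-read taken 45 min after Ran addition.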
* hit, by the source's call; ? = inconclusive; nt = not tested or not shown; & = joins results of further samples. Some of the compounds tested, so the mix of outcomes need not match the whole.

SMILES | miR-21 reporter | GLA inh pH 4.5 | Rango-impB inh | Rango dissoc inh
COC(=O)c1ccc([C@@H]2C[C@H]3CN(Cc4cccnc4)C(=O)[C@]34CCCN24)cc1 | -3% | -2 | -0.3% | 7%
Cc1cccc2nc(-c3ccco3)oc(=O)c12 | 0% | nt | 1.7% | 15%
CCOc1cc(CNc2ccc(N3CCCCC3)cc2)cc(Br)c1OCC(=O)NC(C)(C)C | -12% | -17 | -0.2% | -11%
CCc1nnc(NC(=O)CSc2nc3cccnc3n2C2CCCCC2)s1 | 13% | -5 | 3.3% | 24%
CCN(CC)c1ccc2c(c1)oc(=O)c1c(Cl)cc(=O)oc12 | -4% | 0 | ? | ?
CCc1ccc(/C=C(\Cl)c2nc3cc(Cl)ccc3c(=O)[nH]2)cc1 | 0% | -7 | -1.0% | 2%
CC(C)Cn1c(N)c(/C=N/NC(=O)c2ccc(Cl)cc2)c(=O)n(C)c1=O | -1% | nt | -1.5% | -10%
CC1CCN(c2ccc3nnc(CCC(=O)Nc4ccc(F)cc4)n3n2)CC1 | -4% | nt | 2.2% | 0%
CNc1ccc(/C=C(\C#N)c2ccccn2)cc1[N+](=O)[O-] | -45% | -4 | ? | -2%
Cc1cc[n+](-c2[nH]c(=O)sc2/C=N/N=C(\[O-])c2ccncc2)cc1 | 0% | nt | 2.9% | -2%
COCCCNC(=O)Cn1nnc(-c2ccccc2NC(=O)c2ccccc2F)n1 | -2% | 2 | 0.3% | -1%
S=c1[nH]nc(-c2ccco2)n1-c1cccc2ccccc12 | -1% | -1 | -3.1% | 19%
Cc1cccc(NCCC#N)c1 | -1% | 6 | -0.3% | -10%
O=C1CSC(c2cn(-c3ccccc3)nc2-c2cccs2)N1Cc1ccccc1 (stereo not drawn) | -2% | -8 | nt | nt
N#CCC(CNc1ncc(C(F)(F)F)cc1Cl)OC(=O)c1cccc([N+](=O)[O-])c1 (stereo not drawn) | 10% | -28 | 5.7% | 1%
CCCNC(=O)CN1C(=O)c2ccccc2Sc2ncccc21 | -1% | nt | 6.3% | 0%
CCOc1ccc(Nc2nnc(SCc3nc4ccccc4c(=O)[nH]3)s2)cc1 | -13% | 6 | 0.8% | -2%
COc1c(C)cc(C(=O)C2CCCN(C(=O)C3=C(C)OCCO3)C2)cc1C (stereo not drawn) | 2% | 1 | 0.8% | 11%
CC(C)(C)NC(=O)/C(=C\c1ccc(Br)cc1)NC(=O)c1cccs1 | -2% | 9 | 2.9% | -4%
Cc1ccc2c(CC(=O)NCC(=O)Nc3c(C)cccc3C)coc2c1 | nt | nt | 1.4% | -7%
CCCc1nc2sc3c(=O)[nH]cnc3c2c2c1CCCC2 | 1% | 1 | nt | nt
O=C(O)C(=O)Nc1nc(-c2ccc3c(c2)OCCO3)cs1 | -39% | nt | 0.6% | 8%
CCOC(=O)C1=C(C)Nc2ccccc2N=C1NC(=O)C1CCN(C(=O)c2ccccc2C)CC1 | nt | nt | -1.4% | 5%
COc1ccc(NC(=S)NCc2cccnc2)cc1 | 0% | -5 | -2.1% | -6%
CCCCNc1ncnc2c1cnn2-c1ccc(C)cc1C | -17% | 1 | -1.4% | 15%
CC1(C)CCC(=O)N(c2ccc(OC(F)(F)F)cc2)C1=O | 0% | nt | -0.7% | 35%
Cc1ccc(C(=O)Oc2ccc(Cl)c3cccnc23)cc1[N+](=O)[O-] | 9% | 6 | -2.2% | -12%
COc1ccc(NC(=O)COC(=O)Cn2cnc3ccccc3c2=O)cc1OC | -2% | 2 | ? | 1%
CC1CCN(c2ccc3c(c2)S(=O)(=O)c2cccc(C(=O)NC[C@@H]4CCCO4)c2C3=O)CC1 | nt | nt | ? | ?
C[C@H](CO)N1C[C@H](C)[C@@H](CN(C)C(=O)Nc2ccc3c(c2)OCO3)Oc2c(NS(=O)(=O)c3ccccc3)cccc2C1=O | nt | nt | -0.3% | 2%
COC(=O)c1cc(Br)c(=O)n(-c2ccccc2F)c1 | -7% | 18 | 5.0% | 1%
Brc1ccc(Nc2c3c(nc4ncnn24)CCC3)cc1 | -6% | 2 | 4.1% | -12%
CC1CCN(C(=O)CSc2nc3c(c(=O)n(C)c(=O)n3C)n2C)CC1 | 4% | nt | 3.5% | 11%
Cc1ccc(NC(=O)COC(=O)Cc2c(F)cccc2Cl)cc1S(=O)(=O)N1CCOCC1 | nt | nt | -0.7% | -5%
CC(C)Oc1ccc(C(=O)CCN2CCOCC2)cc1 | nt | nt | 0.5% | 8%
CCCCN(C(=O)c1cc(S(=O)(=O)N2CCCCCC2)ccc1OC)c1ccccc1 | nt | nt | 1.3% | -7%
O=C(C1CCCC1)N1CCN(S(=O)(=O)c2cccc(Cl)c2Cl)CC1 | 0% | nt | 1.5% | -3%
O=C(Nc1ccncc1)c1cncc(Br)c1 | 0% | 7 | 8.1% | 1%
Fc1ccc(CSc2nc3ncc(Br)cc3[nH]2)cc1 | -10% | 0 | -0.4% | 7%
COc1ccc(Cc2c(O)nc(SCC(=O)NC(C)(C)C)[nH]c2=O)cc1 | 2% | 6 | -7.2% | -8%
O=C(c1ccccc1)c1ccc(Oc2ccc(C(=O)O)c(C(=O)O)c2)cc1 | -3% | nt | 3.4% | 32%
Cc1[nH]c2ccccc2c1C(=O)COC(=O)c1nccnc1N | nt | nt | -1.5% | -10%
O=C(CN1C(=O)/C(=C/c2ccccc2F)Oc2ccccc21)N1CCN(c2ccccn2)CC1 | 0% | -2 | -3.2% | 8%
COc1ccc(/C(N)=N/OC(=O)Oc2ccccc2)cc1OC | -5% | -10 | -1.1% | 34%
COc1cc(NC(=O)CC(C)S(=O)(=O)c2ccc3c(c2)NC(=O)CO3)cc(OC)c1OC (stereo not drawn) | 1% | nt | 2.2% | -5%
Cc1nn(C)c(NC(=O)c2ccccc2Cl)c1Cl | -5% | nt | 0.5% | -3%
O=C(Nc1ccccc1)c1ccccc1N=Cc1cccc(O)c1 | -2% | 11 | 0.8% | -12%
O=c1ccc2cc(S(=O)(=O)N3CCN(c4ccccc4F)CC3)ccc2[nH]1 | 8% | nt | -1.2% | 15%
CN(CC(=O)O/N=C(\N)c1ccc(Br)cc1)S(=O)(=O)c1ccccc1 | 0% | nt | -1.4% | -8%
O=C(COC(=O)CNC(=O)c1ccccc1F)NCCC1=CCCCC1 | 0% | 2 | -3.4% | 1%
Cc1nc2oc3c(=O)[nH]cnc3c2c2c1COC(C)(C)C2 | 0% | -1 | -0.7% | -5%
CCOC(=O)c1sc(NC(=O)CN(CC(C)C)CC(C)C)c(C(=O)OCC)c1C | 1% | -5 | -1.7% | 2%
O=C(NCc1ccccn1)C1CCCN(Cc2cnn(-c3ccccc3)c2-n2cccc2)C1 (stereo not drawn) | -3% | -21 | -1.1% | -5%
O=C(NCC1CCCO1)c1ccc(F)c2ccccc12 (stereo not drawn) | 3% | nt | 0.1% | 0%
O=c1c2c(nc(NCCO)n1CC1CCCCC1)-c1ccccc1CC21CCCC1 | 15% | -5 | 1.2% | -14%
O=C(NC(=S)Nc1nc(-c2ccc([N+](=O)[O-])cc2)cs1)c1ccco1 | -33% | nt | 4.3% | 8%
NC(=O)C1CCN(c2nc(-c3ccccc3)nc3ccccc23)CC1 | -3% | -7 | 0.6% | -11%
O=C(O)CC1NC(=O)N(c2ccc(Cl)cc2)C1=O (stereo not drawn) | 0% | -1 | -3.4% | 1%
CN(CCOc1ccccc1)C(=O)c1cc([N+](=O)[O-])ccc1N1CCOCC1 | nt | nt | -0.8% | -9%
Cc1nc2ccccn2c1C(=O)CSc1ccccc1Cl | -3% | 1 | -4.3% | -8%

Ordered by length of the SMILES (lowest first): 18 of the compounds above.
SMILES | miR-21 reporter | GLA inh pH 4.5 | Rango-impB inh | Rango dissoc inh
Cc1nn(C)c(NC(=O)c2ccccc2Cl)c1Cl | -5% | nt | 0.5% | -3%
Fc1ccc(CSc2nc3ncc(Br)cc3[nH]2)cc1 | -10% | 0 | -0.4% | 7%
O=C(O)CC1NC(=O)N(c2ccc(Cl)cc2)C1=O (stereo not drawn) | 0% | -1 | -3.4% | 1%
O=C(Nc1ccccc1)c1ccccc1N=Cc1cccc(O)c1 | -2% | 11 | 0.8% | -12%
COc1ccc(/C(N)=N/OC(=O)Oc2ccccc2)cc1OC | -5% | -10 | -1.1% | 34%
Cc1[nH]c2ccccc2c1C(=O)COC(=O)c1nccnc1N | nt | nt | -1.5% | -10%
Cc1nc2oc3c(=O)[nH]cnc3c2c2c1COC(C)(C)C2 | 0% | -1 | -0.7% | -5%
O=C(COC(=O)CNC(=O)c1ccccc1F)NCCC1=CCCCC1 | 0% | 2 | -3.4% | 1%
NC(=O)C1CCN(c2nc(-c3ccccc3)nc3ccccc23)CC1 | -3% | -7 | 0.6% | -11%
O=c1c2c(nc(NCCO)n1CC1CCCCC1)-c1ccccc1CC21CCCC1 | 15% | -5 | 1.2% | -14%
COc1ccc(Cc2c(O)nc(SCC(=O)NC(C)(C)C)[nH]c2=O)cc1 | 2% | 6 | -7.2% | -8%
O=C(c1ccccc1)c1ccc(Oc2ccc(C(=O)O)c(C(=O)O)c2)cc1 | -3% | nt | 3.4% | 32%
O=c1ccc2cc(S(=O)(=O)N3CCN(c4ccccc4F)CC3)ccc2[nH]1 | 8% | nt | -1.2% | 15%
CCOC(=O)c1sc(NC(=O)CN(CC(C)C)CC(C)C)c(C(=O)OCC)c1C | 1% | -5 | -1.7% | 2%
O=C(NC(=S)Nc1nc(-c2ccc([N+](=O)[O-])cc2)cs1)c1ccco1 | -33% | nt | 4.3% | 8%
O=C(NCc1ccccn1)C1CCCN(Cc2cnn(-c3ccccc3)c2-n2cccc2)C1 (stereo not drawn) | -3% | -21 | -1.1% | -5%
O=C(CN1C(=O)/C(=C/c2ccccc2F)Oc2ccccc21)N1CCN(c2ccccn2)CC1 | 0% | -2 | -3.2% | 8%
COc1cc(NC(=O)CC(C)S(=O)(=O)c2ccc3c(c2)NC(=O)CO3)cc(OC)c1OC (stereo not drawn) | 1% | nt | 2.2% | -5%

(list continues)
SMILES | miR-21 reporter | GLA inh pH 4.5 | Rango-impB inh | Rango dissoc inh
O=C(Nc1ccc(O)c(-c2nc3ccccc3o2)c1)C1(c2ccc([N+](=O)[O-])cc2)CCCC1 | -2% | 0 | 6.7% | -5%
CC1CN(C(=O)COC(=O)CSc2ccc(C(N)=O)cc2[N+](=O)[O-])CC(C)O1 (stereo not drawn) | nt | nt | 0.6% | 7%
CCCC(=O)Oc1ccc(-c2nccc(C(OC)OC)n2)cc1 | -26% | 0 | -2.5% | -1%
O=C(NN1C(=O)/C(=C\c2ccc(O)c([N+](=O)[O-])c2)SC1=S)c1ccccc1Cl | 0% | -2 | ? | 18%
O=C(O)C1CCCCC1C(=O)NCCc1ccc(Cl)cc1 (stereo not drawn) | -13% | -15 | -1.0% | -5%
C/C(=N/NC(=O)c1ccc2c(c1)OCO2)c1ccc(NC(=O)C(F)(F)F)cc1 | -46% | 4 | -2.6% | -5%
CCN(c1ccc(OC)cc1)S(=O)(=O)c1nnc(NC(=O)CC(C)C)s1 | 0% | nt | -1.3% | -11%
CC/C(=N\NC(=O)c1ccncc1)C12CC3CC(CC(C3)C1)C2 | -3% | 14 | 0.9% | 0%
COc1ccccc1C(=O)NCC(=O)NCCSc1ccc(Br)cc1 | nt | nt | -2.0% | 16%
COc1ccc(/C=N/NC(=O)c2cccc([N+](=O)[O-])c2)c2ccccc12 | -1% | nt | ? | -7%
Cc1ccc(C)c(NC(=O)CCOc2ccccc2)c1 | -7%&-10% | nt | 2.7% | -9%

3 structures out of the list, arranged by heavy-atom count, lowest first.
SMILES | miR-21 reporter | GLA inh pH 4.5 | Rango-impB inh | Rango dissoc inh
O=C(O)C1CCCCC1C(=O)NCCc1ccc(Cl)cc1 (stereo not drawn) | -13% | -15 | -1.0% | -5%
CC/C(=N\NC(=O)c1ccncc1)C12CC3CC(CC(C3)C1)C2 | -3% | 14 | 0.9% | 0%
O=C(NN1C(=O)/C(=C\c2ccc(O)c([N+](=O)[O-])c2)SC1=S)c1ccccc1Cl | 0% | -2 | ? | 18%
